Compound activity: PubChem BioAssay, Vanderbilt University
GIRK2 act – GIRK2 channel activation | P48051 | HEK293-GIRK2 thallium flux, Thallos fluorescence | calls only for hits at 25 µM | hit rate 0.05% among 63,000 | AID 1259325;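 active = among the strongest 0.2% of first-round signals and kept after retests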;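 also: first round at about 10 µM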
Target sequence (P48051 whole entry, looked up): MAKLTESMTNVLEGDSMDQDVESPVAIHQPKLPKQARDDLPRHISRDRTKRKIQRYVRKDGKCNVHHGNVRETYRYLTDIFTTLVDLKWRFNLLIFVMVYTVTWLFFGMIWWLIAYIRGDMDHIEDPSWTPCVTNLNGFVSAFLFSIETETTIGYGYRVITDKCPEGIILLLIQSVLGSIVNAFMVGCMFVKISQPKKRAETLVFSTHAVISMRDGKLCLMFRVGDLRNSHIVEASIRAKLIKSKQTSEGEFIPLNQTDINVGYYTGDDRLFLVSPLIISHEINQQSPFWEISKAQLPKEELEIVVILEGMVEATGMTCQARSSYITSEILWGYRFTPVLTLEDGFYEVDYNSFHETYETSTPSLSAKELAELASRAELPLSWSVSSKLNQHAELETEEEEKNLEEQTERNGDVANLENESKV
Calls only; i = inactive. An excerpt. The share of hits here may be higher or lower than overall.

No. | smiles | GIRK2 act
1 | CCOC(=O)c1c(C)oc2cc(Br)c(OC(C)=O)cc12 | i
2 | Cn1nc(N2CCC(C(=O)Nc3ccc(C(N)=O)cc3)CC2)ccc1=O | i
3 | O=C(Nc1ccccc1Cl)N(CCc1cccs1)Cc1ccco1 | i
4 | O=C(NCC#CCOc1ccc2c(c1)OCO2)c1cccs1 | i
5 | COc1cc2nc3sc(Nc4ccccc4F)nn3c(=O)c2cc1OC | i
6 | Cc1cc(C)c(NC(=O)CSc2cc(N3CCC(C(=O)NC4CC4)CC3)ncn2)c(C)c1 | i
7 | O=C(Nc1nc(C(=O)NCc2ccc(Cl)cc2)co1)c1ccsc1 | i
8 | Cc1cccc(NC(=O)C2CCN(c3ccc(=O)n(C)n3)CC2)c1C | i
9 | COc1cccc(Cn2c(=O)n(CCCCC(=O)NC3CCCCC3)c(=O)c3ccccc32)c1 | i
10 | CCN1CCCC1CNC(=O)c1cc2c(C)nn(-c3ccccc3)c2s1 (centres undefined) | i
11 | Cc1c(C)n2c3c(=O)n(CCCO)c(=O)n(C)c3nc2n1-c1ccc(Cl)cc1 | i
12 | COCCNC(=O)C(=O)NCC1OCCCN1S(=O)(=O)c1ccc(OC)c(OC)c1 (centres undefined) | i
13 | O=S(=O)(NCCNc1cc(Nc2ccccn2)ncn1)c1cccc(F)c1 | i
14 | O=C(Cn1nc(-c2ccc(F)cc2)c2sc(N3CCOCC3)nc2c1=O)NC1CCCC1 | i
15 | COc1ccc(C)cc1S(=O)(=O)NCCNC(=O)c1ccc(NC(C)=O)cc1 | i
16 | O=C(NCc1cccc(-c2nccs2)c1)c1cc(C2CC2)on1 | i
17 | O=C(CSc1ncc(S(=O)(=O)c2ccc(Cl)cc2)c(=O)[nH]1)Nc1ccccc1 | i
18 | O=C(Cn1nc2c(N3CCOCC3)nccn2c1=O)NCc1cccc(C(F)(F)F)c1 | i
19 | O=C(Nc1nc(-c2ccco2)cs1)c1cc2n(n1)CCCO2 | i
20 | O=C(OCc1cccc(O)c1O[C@@H]1O[C@H](CO)[C@@H](O)[C@H](O)[C@H]1O)C1(O)C(=O)C2C=CC1C1C=CC(=O)C(O)(C(=O)OCc3cccc(O)c3O[C@@H]3O[C@H](CO)[C@@H](O)[C@H](O)[C@H]3O)C21 (some centres undefined) | i
21 | CCOc1cc(/C=C2/SC(=S)N(c3cccc(O)c3)C2=O)ccc1O | i
22 | O=C(CSc1nnc(N2CCN(c3ccccc3)CC2)s1)N1CCCC1 | i
23 | COc1cccc2cc(S(=O)(=O)N3CCCC(C)C3)c(=O)oc12 (centres undefined) | i
24 | COc1ccc(NC(=O)c2nnn(Cc3nc(-c4ccc(OC(C)C)cc4)oc3C)c2N)c(OC)c1 | i
25 | COc1ccc(-c2cc(-c3nc(-c4cc(OC)c(OC)c(OC)c4)no3)[nH]n2)c(OC)c1 | i
26 | C=CCOCC(O)Cn1c(NCCCOC(C)C)nc2c1c(=O)[nH]c(=O)n2C (centres undefined) | i
27 | COC(=O)c1cn(Cc2c(F)cccc2Cl)nc1S(=O)(=O)N1CCCC(C)C1 (centres undefined) | i
28 | O=C(NCC(O)c1ccoc1)Nc1cccc(Cl)c1 (centres undefined) | i
29 | CCSC1=NCCN1S(=O)(=O)c1ccc(Br)cc1 | i
30 | CC(=O)c1ccc(S(=O)(=O)N(Cc2cccs2)Cc2cccn2C)cc1 | i
31 | Cc1ccc(C(C)C)c(OCC(O)CNC(C)(C)C)c1 (centres undefined) | i
32 | Fc1cccc(/C=C/c2nn3c(-c4ccncc4)nnc3s2)c1 | i
33 | O=c1ccc(-n2ccnc2)nn1CCNS(=O)(=O)c1ccc(Br)cc1 | i
34 | COc1ccc(C2=NN3C(C2)c2cc(Cl)ccc2OC32CCN(C)CC2)cc1 (centres undefined) | i
35 | CCOC(=O)N1CCN(C2CC(=O)N(c3cccc(C)c3)C2=O)CC1 (centres undefined) | i
36 | O=C(NCCCc1ccccc1)c1cc(=O)c(OCc2ccccc2)co1 | i
37 | Cc1cc(-c2ccccc2)nc2cc(-c3nc(-c4ccc5c(c4)OCO5)no3)nn12 | i
38 | COc1ccccc1CNC(=O)c1nnn(-c2ccccc2F)c1-c1cccnc1 | i
39 | O=C(COc1ccccc1F)N1CCC(CSC2=NCCS2)CC1 | i
40 | CCOC(=O)c1c(-n2cnnn2)sc2c1CCCC2 | i
41 | Cc1cccc(NC(=O)CSc2nccn3nc(-c4ccccc4)cc23)c1C | i
42 | Cn1cc(-c2ccco2)nc1CCNC(=O)c1ccc(Cl)s1 | i
43 | O=C(CN1CCN(CC(=O)c2ccco2)CC1)Nc1cccc(C(F)(F)F)c1 | i
44 | Cc1nc(-c2cccs2)sc1CNC(=O)c1ccc(=O)[nH]n1 | i
45 | O=C(CN1CCN(C(=O)c2nc3ccccc3s2)CC1)c1ccco1 | i
46 | O=C(OC1CN(c2nc3c(C(F)(F)F)cccc3s2)C1)c1nc2ccccc2s1 | i
47 | CC(C)(C)c1ccc(-c2noc(CN3C(=O)COc4ccccc43)n2)cc1 | i
48 | CN(CC(=O)NCC1CCCO1)c1nc2c(Cl)cccc2s1 (centres undefined) | i
49 | O=C(COc1ccccc1)Nc1ccc2c(c1)N(S(=O)(=O)c1ccccc1)CCC2 | i
50 | COc1ccccc1C(=O)c1cnc(NC2CCN(S(C)(=O)=O)CC2)nc1N | i

Reprinted from the part before: 6 entries, then new ones.
No. | smiles | GIRK2 act
45 | O=C(CN1CCN(C(=O)c2nc3ccccc3s2)CC1)c1ccco1 | i
46 | O=C(OC1CN(c2nc3c(C(F)(F)F)cccc3s2)C1)c1nc2ccccc2s1 | i
47 | CC(C)(C)c1ccc(-c2noc(CN3C(=O)COc4ccccc43)n2)cc1 | i
48 | CN(CC(=O)NCC1CCCO1)c1nc2c(Cl)cccc2s1 (centres undefined) | i
49 | O=C(COc1ccccc1)Nc1ccc2c(c1)N(S(=O)(=O)c1ccccc1)CCC2 | i
50 | COc1ccccc1C(=O)c1cnc(NC2CCN(S(C)(=O)=O)CC2)nc1N | i
51 | CC(=O)N1CCc2c(sc(NC(=O)c3c(F)cccc3F)c2-c2nc3ccccc3s2)C1 | i
52 | CCS(=O)(=O)NC1CCCC(OC(=O)Nc2ccccc2)C1 (centres undefined) | i
53 | CC1Oc2ccc(NC(=O)Cc3csc(-n4cccc4)n3)cc2NC1=O (centres undefined) | i
54 | COc1ccc(-c2noc(-c3cccn(CC(=O)Nc4cccc(C(C)=O)c4)c3=O)n2)cc1OC | i
55 | CC(C)OCCCN1C(=O)CC(Sc2ccccc2C(=O)O)C1=O (centres undefined) | i
56 | O=C(NCCCCN1CCCC1)c1ccncc1 | i
57 | CCOc1ccc(CC(=O)N2CCC(Oc3ncccc3Cl)CC2)cc1 | i
58 | CCSc1ccccc1C(=O)NCC1CCN(S(=O)(=O)c2cccnc2)CC1 | i
59 | CCNC(=O)N1CCN(Cc2nnnn2-c2ccc(C)cc2)CC1 | i
60 | CC(C)C(=O)NCCc1nc2ccccc2n1Cc1ccc(F)cc1 | i
61 | CCCCCCC[C@H](O)/C=C/[C@H]1[C@H](O)CC(=O)[C@@H]1C/C=C\CCCC(=O)O | i
62 | COc1cccc(/C=C/c2nc(C#N)c(N3CCN(C(=O)c4ccccc4)CC3)o2)c1 | i
63 | CCOc1ccc2nc(NC(=O)c3coc(NC(=O)C4CC4)n3)sc2c1 | i
64 | COc1ccc(OC)c(-c2cc(C(=O)NCc3cc(-c4cccs4)n(C4CCCC4)n3)n(C)n2)c1 | i
65 | CCc1nc(SCC(=O)NCc2ccco2)c2c3c(sc2n1)CCC3 | i
66 | Cc1cc(C(=O)Nc2ccc(-n3nnn(CC(=O)N4CCOCC4)c3=O)cc2)no1 | i
67 | N#C/C(C(=O)NCc1ccccc1)=C1/SC(CCO)C(=O)N1c1ccccc1 (centres undefined) | i
68 | Cc1[nH]c(=O)n(C)c(=O)c1CCC(=O)N1CCN(c2ccc(Cl)nn2)CC1 | i
69 | Cn1c(=O)n(Cc2ccccc2F)c(=O)c2c1nc1n2CCCN1CCc1ccccc1 | i
70 | CC(=O)c1ccc(NC(=O)CSc2nc3c(-c4ccccc4)c[nH]c3c(=O)n2C2CC2)cc1 | i
71 | C=C(C(=O)OC1CC2(C)C(O)CCC(O)(CO)C2C(O)C1C(=C)C(=O)OC)C(O)CO (centres undefined) | i
72 | O=C(NCC1(CO)CC1)C(=O)Nc1ccon1 | i
73 | CC(Cc1cccs1)NC(=O)CCS(=O)(=O)c1ccccc1 (centres undefined) | i
74 | CCn1cc(C(=O)O)c(=O)c2ccc(C)nc21 | i
75 | COc1ccc(Cn2c(-c3cccs3)nc3c(c(=O)c4ccccc4n3C)c2=O)cc1 | i
76 | Cc1nc(-c2cccc(NC(=O)Cn3nc(-c4ccco4)ccc3=O)c2)cs1 | i
77 | COc1cccc(-c2nc(C3CC(=O)N(Cc4ccccc4)C3)no2)c1 (centres undefined) | i
78 | Cc1cc(C(=O)N2CCC(Oc3cnccn3)CC2)no1 | i
79 | CCC(C(=O)Nc1ccc(S(=O)(=O)N2CCN(c3cnccn3)CC2)cc1)c1ccccc1 (centres undefined) | i
80 | Cc1ccc(S(=O)(=O)c2cnc(SCC(=O)Nc3cc(Cl)ccc3C)[nH]c2=O)cc1 | i
81 | COc1cc(-c2noc(CSc3nc4[nH]ncc4c(=O)n3-c3ccccc3)n2)cc(OC)c1OC | i
82 | CCOc1ccc(-c2csc3c(=O)n(Cc4ccccc4)cnc23)cc1OCC | i
83 | Cn1c(=O)c2ccc(C(=O)NC3CCCCC3)cc2n2c(=O)n(Cc3ccccc3Cl)nc12 | i
84 | O=c1c2cc3c(cc2nc(SCc2nc(-c4ccccc4)no2)n1Cc1ccco1)OCO3 | i
85 | COc1ccc(-n2nnc(C(=O)N3CCCCC3)n2)cc1 | i
86 | CC(=O)NS(=O)(=O)c1ccc(N/C=C(\C#N)c2nc3ccccc3n2C)cc1 | i
87 | Cc1ccc(S(=O)(=O)c2nc(S(=O)(=O)C3CCCCC3)sc2NCc2ccco2)cc1 | i
88 | CN(C)c1ccc(C(=O)NCC(O)c2ccoc2)cc1 (centres undefined) | i
89 | COc1cccc(NC(=O)CCn2nnc3ccccc3c2=O)c1 | i
90 | C=CCN1CC(c2nc3ccccc3n2CCCC)CC1=O (centres undefined) | i
91 | O=C(c1ccc2c(c1)OCO2)N1CCC(Oc2ccc(C(F)(F)F)cn2)CC1 | i
92 | O=C(c1csc(Nc2ccc(OC(F)F)cc2)n1)N1CCN(c2ccccc2F)CC1 | i
93 | COc1ccc(SCC2CCN(C(=O)c3cccc(N(C)C)c3)CC2)cc1 | i
94 | COc1cccc(C(=O)NCCN2CCN(S(C)(=O)=O)CC2)c1OC | i
95 | O=C(Nc1sc2c(c1-c1nc3ccccc3s1)CCCC2)c1cccs1 | i
96 | CC(C)CN(CC(C)C)S(=O)(=O)CCNC(=O)c1ccc2c(c1)OCO2 | i
97 | O=C(Nc1onc2c1CCCC2)c1cc2n(n1)CCCO2 | i
98 | Cc1nc(C)c(-c2nnc(NC(=O)Cc3ccc(SC(C)C)cc3)o2)s1 | i
99 | Cc1cccc(C)c1NC(=O)CSc1cc(N2CCN(c3ccccc3F)CC2)ncn1 | i
100 | CSc1ccc(CNC(=O)Cn2nc3c(N4CCOCC4)nccn3c2=O)cc1 | i

A section from the list above:
No. | smiles | GIRK2 act
94 | COc1cccc(C(=O)NCCN2CCN(S(C)(=O)=O)CC2)c1OC | i
95 | O=C(Nc1sc2c(c1-c1nc3ccccc3s1)CCCC2)c1cccs1 | i
96 | CC(C)CN(CC(C)C)S(=O)(=O)CCNC(=O)c1ccc2c(c1)OCO2 | i
97 | O=C(Nc1onc2c1CCCC2)c1cc2n(n1)CCCO2 | i

Next entries.
No. | smiles | GIRK2 act
101 | O=C(CSc1nnc2scc(-c3ccc(Cl)cc3)n12)c1ccc2c(c1)OCCO2 | i
102 | CCCc1cc(N2CCN(CCO)CC2)n2nc3nc(C)cc(C)c3c2n1 | i
103 | CCOC(=O)Cn1c(=O)c2c(nc3n2CCCN3c2ccccc2OC)n(C)c1=O | i
104 | CSc1cccc(NC(=O)Cn2c(C)nc(C(C)(C)C)cc2=O)c1 | i
105 | Cn1nc(CNC(=O)Cc2ccccc2Cl)cc1-c1ccncc1 | i
106 | CCN(CC)CCCN1C(=O)c2oc3cc(C)c(C)cc3c(=O)c2C1c1ccccc1 (centres undefined) | i
107 | CCOC(=O)N1CCN(C(=O)CSc2ncc(CO)n2Cc2ccc(OC)cc2)CC1 | i
108 | COc1ccc2c(=O)c(Oc3ccccc3F)c(C)oc2c1 | i
109 | COc1ccc(CC(=O)Nc2ccc3c(c2)CCCN3S(=O)(=O)c2ccc(OC)cc2)cc1 | i
110 | CSc1ncccc1C(=O)NCC1CCN(C(=O)Oc2ccccc2)CC1 | i
111 | Brc1cccc(-n2nnnc2-c2ccc3ccccc3n2)c1 | i
112 | COc1ccc(N2C(=O)CSC23C(=O)N(CC(=O)Nc2ccccc2OC)c2ccccc23)cc1 (centres undefined) | i
113 | Cc1ccc(C)c2sc(N3CC(OC(=O)c4cn(C)nn4)C3)nc12 | i
114 | O=C(Cn1c(=O)nc(-c2ccccc2)c2cc(Cl)ccc21)NCc1ccccc1 | i
115 | Cn1c(C2CCCN(S(C)(=O)=O)C2)nn(CC(=O)NCc2ccc3c(c2)OCO3)c1=O (centres undefined) | i
116 | Cc1ccc(NC(=O)CSc2nccn2-c2cccc(C(=O)Nc3ccccc3)c2)cc1 | i
117 | O=S(=O)(Nc1nc2ccccc2nc1NCC1CCCO1)c1ccc(F)cc1 (centres undefined) | i
118 | NC(=O)CSc1nnc(-c2cccc(S(=O)(=O)N3CCCCC3)c2)o1 | i
119 | Cc1cc(=O)[nH]c(-n2nc(C)c(CCC(=O)N3CCc4ccccc43)c2C)n1 | i
120 | O=C(CSCc1ccccc1)N1CCC2(CC1)OCCCO2 | i
121 | CCn1cc(C(=O)Nc2cccc(Br)c2)c(=O)c2ccc(C)nc21 | i
122 | CC(=O)Nc1ccc(SCCCC(=O)Nc2ccc3c(c2)OCCO3)nn1 | i
123 | COc1ccccc1-n1ncc2c(C)nnc(SCC(=O)NCCc3ccccc3)c21 | i
124 | Cc1nc(SCC(=O)Nc2ccc3c(c2)OCCO3)cc(-c2ccccn2)n1 | i
125 | O=C(Cc1cccs1)NCC1(c2ccc(F)cc2)CC1 | i
126 | Cc1nc(-n2cccc2)sc1C(=O)N1CCC(c2nnc(-c3ccco3)s2)CC1 | i
